Compound activity: PubChem, ICCB-Longwood Screening Facility, Harvard Medical School
Bm FixLJ act – increases Burkholderia fixLJ two-component signaling | B. multivorans fixK-promoter GFP reporter, 18 h; stronger effect = higher value | 29,000 compounds, 0.3% hits | z-score (test concentration not listed) | AID 1918990;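 active means replicate mean overnight rise in green fluorescent reporter signal, 3 or more SD over negative controls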;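 further: score is relative to vehicle wells of the plate; 300 nL library stock went into each well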
* hit, by the source's call.

compound	Bm FixLJ act
O=S(=O)(c1ccccc1F)N1CCC(Oc2ccc(-n3cnnn3)cc2)CC1	-0.47
Cc1ccc(S(=O)(=O)N(CC(=O)Nc2c(C)cccc2C)c2cccc(Cl)c2)cc1	-1.83
CC(NC(=O)Cc1ccc(O)c(Cl)c1)c1cn2ccsc2n1 (configuration not stated)	0.06
NC(=O)C1CC=CCC1NC(=O)C1CCN(C(=O)c2ccc(F)cc2)CC1 (configuration not stated)	0.35
COc1ccc(Cl)cc1C(=O)NCc1nc(-c2cccc(C)c2)no1	-0.88
COCCn1c(CO)nnc1C1CC(NC(=O)c2ccc(O)cc2C)C1 (configuration not stated)	-1.92
COC(=O)c1cc(NC(=O)c2ccc3c(c2)NC(=O)c2ccccc2S3)cc(C(=O)OC)c1	-1.21
Cc1ccc(OCCCCn2c(-c3ccc(Cl)cc3)nc3ccccc3c2=O)cc1	0.18

compound	Bm FixLJ act
O=C(c1ccc(OC2(C(=O)O)CCSCC2)cc1)N1CCOCC1	-2.69
COc1ccc2c(c1)c(CC(=O)Nc1cc(C)c(OC)c(C)c1)c(C)n2C(=O)c1ccc(Cl)cc1	-2.32
CCc1[nH]nc(C(=O)N2CCc3c(nc(C)nc3N(C)C)C2)c1C	-1.45
COc1ccc(-c2noc(CCC(=O)N(C)c3cc(Cl)ccc3OC)n2)cc1	-1.11
CCC(=O)Nc1cc(-c2nc3cc(C)cc(C)c3o2)ccc1C	-2.35
COc1ccc(C(=O)Nc2onc3c2CCCC3)cc1	-2.06
Cc1nc(N)sc1C(=O)N1CCN(CCc2ccccc2)C(=O)C1	0.02
COc1cccc(C2CN(C(=O)Cc3n[nH]c(C)n3)CC2C(=O)O)c1OC (configuration not stated)	-1.03

Sorted by formula weight (smallest number first): part of the list above
compound	Bm FixLJ act
COc1ccc(C(=O)Nc2onc3c2CCCC3)cc1	-2.06
CCC(=O)Nc1cc(-c2nc3cc(C)cc(C)c3o2)ccc1C	-2.35
CCc1[nH]nc(C(=O)N2CCc3c(nc(C)nc3N(C)C)C2)c1C	-1.45
CC(NC(=O)Cc1ccc(O)c(Cl)c1)c1cn2ccsc2n1 (configuration not stated)	0.06
Cc1nc(N)sc1C(=O)N1CCN(CCc2ccccc2)C(=O)C1	0.02
O=C(c1ccc(OC2(C(=O)O)CCSCC2)cc1)N1CCOCC1	-2.69
COc1ccc(Cl)cc1C(=O)NCc1nc(-c2cccc(C)c2)no1	-0.88
COCCn1c(CO)nnc1C1CC(NC(=O)c2ccc(O)cc2C)C1 (configuration not stated)	-1.92
COc1ccc(-c2noc(CCC(=O)N(C)c3cc(Cl)ccc3OC)n2)cc1	-1.11
Cc1ccc(OCCCCn2c(-c3ccc(Cl)cc3)nc3ccccc3c2=O)cc1	0.18
Cc1ccc(S(=O)(=O)N(CC(=O)Nc2c(C)cccc2C)c2cccc(Cl)c2)cc1	-1.83
COC(=O)c1cc(NC(=O)c2ccc3c(c2)NC(=O)c2ccccc2S3)cc(C(=O)OC)c1	-1.21
COc1ccc2c(c1)c(CC(=O)Nc1cc(C)c(OC)c(C)c1)c(C)n2C(=O)c1ccc(Cl)cc1	-2.32

Additional records
compound	Bm FixLJ act
CCc1ccc(NC(=O)N(Cc2ccc(C)cc2)Cc2cccn2-c2nnc(N3CCCC3=O)s2)cc1	0.94
O=C(Cn1ncc2c1-c1ccccc1OC2)N1CCN(c2ccccc2F)CC1	-0.89
FC(F)(F)CCc1ccnc(NCC2COc3ccccc3O2)n1 (configuration not stated)	-1.78
CCOC(=O)c1cc(NC(=O)c2ccc(C)cc2)c(=O)n2c1oc1ccccc12	-1.47
O=C(CCCN1CCCCC1)NCc1nc(-c2ncccn2)no1	0.4
CCOc1cc(C)c(Cl)cc1S(=O)(=O)NC1CCCN(C(=O)C(C)C)C1 (configuration not stated)	0.88
O=c1oc2ccccc2cc1-c1cn2cc(Cc3cc(Cl)ccc3Cl)sc2n1	-2.39
Cc1cnc(CN(C)C(=O)C2OCC(=O)N(C3CC3)C2c2cccnc2)[nH]1 (configuration not stated)	-4.34

compound	Bm FixLJ act
O=C(CN1CCN2C(=O)OCC2(Cc2ccccc2)C1)NCc1ccccc1 (configuration not stated)	-0.44
Cc1ccc(S(=O)(=O)c2nc(S(C)(=O)=O)sc2NCc2ccccc2)cc1	-0.01
COc1ccc2[nH]c(=O)c(CN(C(=O)c3cccc(Cl)c3)c3cccc(C)c3)cc2c1	-1.36
Cc1cc(-c2nn(C)c(Cl)c2CN2CCCN(C(=O)c3ccco3)CC2)no1	0.27
CCc1nnc(CNC(=O)c2nccnc2C(=O)N2CCCCC2)s1	-0.7
COc1ccccc1N1CCN(C(=O)c2ccc3c(c2)N(Cc2cc(C)ccc2C)C(=O)c2ccccc2S3(=O)=O)CC1	0.81
O=C(NCc1cn2c(n1)SCC2)N1CCCCC1CCc1cccs1 (configuration not stated)	-0.99
Brc1ccc(-c2cn3cc(Cc4ccccc4)sc3n2)cc1	-3.27

compound	Bm FixLJ act
COc1ccc(NC(=O)CCS(=O)(=O)c2ccc3c(c2)n(C)c(=O)c(=O)n3C)cc1Cl	-0.4
FC(F)(F)c1cccc(Nc2nc3nonc3nc2Nc2ccc(Cl)cc2)c1	-9.55
Cc1ccc(CNC(=O)CCCCn2c(=O)c3ccccc3n(Cc3ccc(C)cc3)c2=O)cc1	-1.83
O=C1CCCCCN1CCc1nc(C2CCOCC2)nn1C1CCOC1 (configuration not stated)	-0.83
CSc1ncccc1C(=O)N1CCCC(CNC(=O)Cc2c(C)noc2C)C1 (configuration not stated)	-2.76
Cc1ccc2c(c1)C(=O)OC(C(=O)Nc1ncc(Cc3ccccc3Cl)s1)C2 (configuration not stated)	-2.82
Cc1ccc2oc3c(c(=O)c2c1)C1(C(=O)N(C)c2ccccc21)N(CCCO)C3=O (configuration not stated)	-0.31
Cc1ccc(NC(=O)c2ccc3snnc3c2)cc1Cl	-1.84

compound	Bm FixLJ act
CCOc1ccc(NC(=O)c2ccc(NC(=O)CCS(=O)(=O)c3cccs3)cc2)cc1	-2.51
CCCc1cc(=O)oc2cc(C)c3c(-c4cccc(OC)c4)coc3c12	-2.36
CCN1CCN(c2c(S(=O)(=O)c3ccccc3)cnc3ccc(Cl)cc23)CC1	0.29
Cc1nn(Cc2ccc(Cl)c(Cl)c2)c(C)c1NC(=O)c1noc2c1CCc1ccccc1-2	-0.43
COC(=O)C(Cc1c[nH]c2ccccc12)NC(=O)COc1cccc(C)c1 (configuration not stated)	-0.24
COc1cccc(-c2cc(C(=O)Nc3cccnc3Cl)no2)c1	-0.82
CCCn1cnnc1C(C)Nc1cncc(C(=O)N2CCCC2)n1 (configuration not stated)	-0.69
Cc1ncc(-c2ccc(C)c(S(=O)(=O)NCCN3CCCC(CO)C3)c2)o1 (configuration not stated)	0.77

Molecule	Bm FixLJ act
FC(F)(F)c1cc(-c2ccccc2)nc2cc(-c3ccc(Br)cc3)nn12	-1
COc1ccccc1NC(=O)C(Cc1ccccc1)NS(=O)(=O)c1ccc2c(c1)CCN2C(C)=O (configuration not stated)	-2.11
CCCn1ccnc1CN1CCCC(CNC(=O)C(F)F)C1 (configuration not stated)	-2.27
Cc1ccccc1NC(=O)CSc1nnc(C)c(=O)[nH]1	-1.67
N#C/C(=C\c1ccc(-c2ccc(Br)cc2)o1)C(=O)Nc1ccccc1O	0.33
Cc1ccc2nc(-c3ccccc3F)c(Nc3ccc(Cl)cc3)n2c1	0.71
CCc1nccn1CCCNc1cc(C)nc2c(C)c(C)nn12	-0.69
CCC(=O)N1CCc2cc(S(=O)(=O)CCC(=O)NCc3ccc(C)cc3)ccc21	-1.58

Molecule	Bm FixLJ act
COC(=O)c1c(NC(=O)c2c(OC)cccc2OC)sc2c1CCCC2	-1.42
Cc1sc2ncn(CC(=O)N3CCN(c4ccccc4F)CC3)c(=O)c2c1S(=O)(=O)N1CCC(C)CC1	-1.81
CCOc1ccc(S(=O)(=O)N(C(C)=O)c2ccc3oc(C)c(C(=O)OC)c3c2)cc1	-0.12
Cc1cc(CN2CCC3(CC2)CCN(C(=O)c2ccco2)CC3CO)on1 (configuration not stated)	-1.62
CCOC(=O)c1c(NC(=O)/C=C/c2ccc(OC)cc2)sc2c1CCC(C)C2 (configuration not stated)	-2.71
CC(=O)N1CCCn2nc(CNC(=O)CCc3ccccc3C)cc2C1	-0.91
O=C(c1ccc(F)cc1F)N1CCC(c2nc(-c3ccc(S(=O)(=O)N4CCCC4)cc3)no2)CC1	-0.66
O=C(CCN1CCN(C(=O)C2CCC2)CC1)NCc1ccccc1F	-2.41

Molecule	Bm FixLJ act
CC1=C(C(=O)Nc2cccnc2)C(c2ccc(C)cc2)n2nc(SCc3ccccc3F)nc2N1 (configuration not stated)	0.01
CS(=O)(=O)c1ccc(-c2ccc(C(O)CN3CCOCC3)cc2)cc1 (configuration not stated)	0.48
Cc1nc(CCC(=O)N2CCC3(CCCN(CCC4CCCCC4)C3=O)C2)n[nH]1 (configuration not stated)	0.09
CC(=O)c1ccc(N2CCN(C(=O)c3cc4c(s3)-c3ccccc3OC4)CC2)cc1	1.91
O=C(c1ccccc1-n1cncn1)N1CCCN(Cc2ccn[nH]2)CC1	0.37
Cc1cc2nn(-c3ccc(F)cc3)nc2cc1NC(=O)c1cccc2c(Cl)cccc12	-1.64
Cc1cc(C)cc(NC(=O)C(=O)NC(C)c2ccccc2)c1 (configuration not stated)	0.1
O=C(Cc1ccccc1F)N1CCC(c2nc3c(nnn3Cc3cccc(Cl)c3)c(=O)[nH]2)CC1	-0.59

Molecule	Bm FixLJ act
COc1ccc(CNC(=O)CCS(=O)(=O)c2cc(Br)cc3c2N(C(=O)C2CC2)CC3)cc1	0.21
COc1cccc(CNC(=O)c2cc(=O)[nH]c3ccc(S(=O)(=O)N4CCCCC4)cc23)c1	-0.5
CCCCNC(=O)c1cn(C)c2ccc(S(=O)(=O)N3CCCC3)cc2c1=O	0.47
CCCn1c(CCC(=O)Nc2ccccc2OC)nc2cccnc21	-2.25
CCn1c(=O)c2cc(C(=O)NCCCN3CCN(c4ccc(F)cc4)CC3)sc2c2ccccc21	-0.07
COc1ccc(Cl)cc1S(=O)(=O)Nc1ccc2[nH]c(=O)[nH]c2c1	0.12
Cn1cnnc1CN1CCC(N2CC(COc3ccc(F)cc3)OCC2=O)CC1 (configuration not stated)	0.88
Cc1ccc2ncc(C(=O)Nc3cccc(C(F)(F)F)c3)c(=O)n2c1	0.21

Molecule	Bm FixLJ act
COc1cccc2c1cc1c(=O)n(CC(=O)NCc3ccco3)nc(C)n12	-1.3
CCOC(=O)Cn1c(=O)oc2cc(S(=O)(=O)N3CCCC(C)C3)ccc21 (configuration not stated)	0.56
COc1ccc(NC(=O)c2oc3ccccc3c2NC(=O)c2cc(C)cc(C)c2)c(OC)c1	-0.56
COc1ccc(-c2c(C#N)c(SCC(=O)Nc3cccc(Cl)c3)nc(C)c2C(=O)Nc2ccccc2)cc1OC	1.2
COc1cccc(-n2cc(CNCc3c(-c4cc(C)on4)nn(C)c3Cl)cn2)c1	-1.31
O=C1CCCN1CCCc1nc(-c2c[nH]c3ccccc23)nn1CCO	-0.07
O=C(Cn1ncc2c3ccccc3n(Cc3cccc(Cl)c3)c2c1=O)NCCCN1CCCCC1	16.1*
CC(C)c1ccc(NS(=O)(=O)c2ccc3[nH]cc(C(=O)N4CCCC4)c(=O)c3c2)cc1	-1.47

Molecule	Bm FixLJ act
CCC(=O)N1CCc2cc(Br)cc(S(=O)(=O)N3CCC(C(=O)Nc4cccc(C)c4)CC3)c21	-0.28
N[C@@H](Cc1cc(I)c(Oc2ccc(O)c(I)c2)c(I)c1)C(=O)O	-0.93
O=C(NCCc1cn[nH]c1)N1CCCN(Cc2ccccc2F)CC1	-0.32
CC1(C)C2CC[C@]3(C)C(C(=O)C=C4[C@@H]5C[C@@](C)(C(=O)O)CC[C@]5(C)CC[C@]43C)[C@@]2(C)CC[C@@H]1OC(=O)CCC(=O)O (some centres not stated)	0.79
COc1ccc(C(CNC(=O)c2oc3cc(Br)ccc3c2C)N2CCCCC2)cc1 (configuration not stated)	-0.88
COCC1C(NC(=O)Nc2ccc(SC)cc2)C2CCOC21 (configuration not stated)	1.05
COCC(C)NC(=O)Nc1ccc2sc(C(=O)N(C)C)cc2c1 (configuration not stated)	-1.94
Cc1nnc(SCC(=O)NC2CC(c3cc(=O)[nH]c(N)n3)C2)s1 (configuration not stated)	0.03

Molecule	Bm FixLJ act
COC[C@]1(O)CCN(Cc2ccc(CCC(C)(C)O)cc2)CC1(C)C	-1.54
Cc1cccc(OCC(=O)Nc2ccc(S(=O)(=O)Nc3onc(C)c3C)cc2)c1C	-2.49
CCc1ccc(CN(C(=O)c2ccc(OC)cc2)C2CCS(=O)(=O)C2)cc1 (configuration not stated)	-1.01
CN(C)c1ccc(CNC(=O)c2ccc(Cn3c(SCc4ccccc4)nc4cccnc43)cc2)cc1	1.89
COc1ccccc1-c1cc(C(=O)Nc2cc(Cl)ccc2O)no1	-2.13
CCn1c(Cn2ccnc2)nnc1C1CCN(C(=O)c2ccccc2)CC1	-0.56
CN(CCO)c1ccc(-c2nc(CCCc3ccccc3)no2)cn1	-0.5
COc1cc(/C=C(\C#N)c2nc3ccc(C)cc3[nH]2)ccc1OC(C)C	-0.85

Molecule	Bm FixLJ act
CC(NC(=O)Cn1c(=O)oc2cc(S(=O)(=O)N3CCCCCC3)ccc21)c1ccccc1 (configuration not stated)	-2.95
O=C(OCc1cccc(C(F)(F)F)c1)c1ccc(-c2nnn(Cc3ccc(F)cc3)n2)cc1	-1.36
Cc1cc(C)c(C#N)c(N2CCC3(CCC(=O)N(CC4CCCO4)C3)CC2)n1 (configuration not stated)	-0.15
CCOc1ccc(/C=C/c2nc(C#N)c(NC(C)CC)o2)cc1 (configuration not stated)	-2.52
CCOc1ccc(C2c3c(-c4cc(C)ccc4O)n[nH]c3C(=O)N2Cc2cccnc2)cc1OCC (configuration not stated)	-2.04
O=C(CC1NCCNC1=O)Nc1ccc(F)c(Cl)c1 (configuration not stated)	-1.58
Cn1c(C(=O)NCCc2ccccc2)cc2sc(Cl)cc21	0.71
Cc1nc2c(c(C)nn2-c2ccccc2)c(C)c1CCC(=O)Nc1ccc(F)cc1	-0.99
Cc1ccc(OCCn2c(CNc3ccccc3C)nc3ccccc32)cc1	-0.31
CCn1cc(C(=O)NC2COCC2Cc2ccncc2)c(C)n1 (configuration not stated)	-1.24

These rows are one share of the data; the hit share may differ from the screen's.
